Source: PubChem BioAssay (Johns Hopkins Ion Channel Center)
KCNQ2 block – KCNQ2 potassium channel inhibitors, primary screen, cell-based, CHO-K1, FluxOR thallium flux, B-score (AID 2156) | O88943 | 20 min; stronger effect = lower value; only compounds with negative scores are shown here; some inactives read as strong as hits | B-score at 10 µM | 310,000 compounds, 1.1% hits;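 active means fluorescence ratio B-score at most minus 3 library SDs, with starting brightness B-score within 2 library SDs, cut at about -5.5 in these data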
Target sequence (O88943 whole entry, looked up): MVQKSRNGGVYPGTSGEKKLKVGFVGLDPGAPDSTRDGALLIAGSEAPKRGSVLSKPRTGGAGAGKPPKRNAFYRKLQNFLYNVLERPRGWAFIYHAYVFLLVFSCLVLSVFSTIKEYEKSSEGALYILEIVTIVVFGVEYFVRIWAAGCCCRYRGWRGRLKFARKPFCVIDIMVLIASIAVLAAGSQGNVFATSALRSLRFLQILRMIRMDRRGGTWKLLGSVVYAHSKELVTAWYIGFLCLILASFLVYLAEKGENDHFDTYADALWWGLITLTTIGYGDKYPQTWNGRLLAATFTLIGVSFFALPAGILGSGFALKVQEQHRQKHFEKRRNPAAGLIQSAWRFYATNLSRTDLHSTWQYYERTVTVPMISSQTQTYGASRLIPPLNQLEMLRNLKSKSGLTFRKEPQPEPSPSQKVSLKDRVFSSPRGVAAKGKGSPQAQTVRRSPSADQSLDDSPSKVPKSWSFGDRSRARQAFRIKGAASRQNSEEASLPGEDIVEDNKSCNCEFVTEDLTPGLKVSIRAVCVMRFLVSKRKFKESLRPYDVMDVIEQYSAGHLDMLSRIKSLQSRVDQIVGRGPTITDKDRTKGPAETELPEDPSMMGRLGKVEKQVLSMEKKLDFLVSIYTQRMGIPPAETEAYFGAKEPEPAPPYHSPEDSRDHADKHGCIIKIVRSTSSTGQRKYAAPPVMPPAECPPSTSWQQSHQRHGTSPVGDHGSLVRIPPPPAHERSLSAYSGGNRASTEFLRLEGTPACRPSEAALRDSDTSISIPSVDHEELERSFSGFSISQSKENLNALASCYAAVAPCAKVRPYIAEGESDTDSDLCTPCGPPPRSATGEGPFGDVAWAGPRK
KCNQ2 block baseline – second read-out of KCNQ2 block, no call of its own (marks repeat the call); B-score; measured here: initial fluorescence intensity artifact check;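 brightness before thallium and not channel activity; 0 = typical well and far values either way flag optical interference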
An asterisk follows results filed as active; i = inactive. Some of the compounds tested; count on the stated rates, not on these rows.

# | compound | KCNQ2 block | KCNQ2 block baseline
1 | O=C(NC1CCCC1)C(Cc1ccccc1)n1cccc1 (stereo not drawn) | i | 0.67
2 | CCc1nn(C(C)C(=O)N(C)Cc2ccccc2)c(=O)c2cc3occc3n12 (stereo not drawn) | i | -0.05
3 | Cc1ccc(CSCC(=O)N2CCN(c3ccc(F)cc3)CC2)cc1 | i | 1.1
4 | COC(=O)c1ccc2c(=O)n(Cc3ccco3)c(SCC(=O)Nc3ccc(C)c(Cl)c3)nc2c1 | i | -1.5
5 | CCC(NC(=O)c1ccccc1NC(=O)c1ccco1)C(=O)O (stereo not drawn) | i | 0.99
6 | CCCNC(=O)CN1C(=O)NC(CC)(c2ccc(F)cc2)C1=O (stereo not drawn) | i | 0.34
7 | CCOC(=O)CON1C(=O)c2ccccc2C1=O | i | -1.6
8 | CC(C)NC(=O)c1c(CSc2ccc(Cl)cc2)noc1C(=O)NCc1ccccc1 | i | -0.57
9 | CNC(=O)COC(=O)/C=C/c1cn(-c2ccccc2)nc1-c1ccc(C)o1 | i | -1.5
10 | CSCCC(NC(=O)c1ccccc1)C(=O)N1CC=C(c2ccccc2)CC1 (stereo not drawn) | i | 0.01
11 | O=S(=O)(c1cccs1)N1CCN(c2ccccc2Cl)CC1 | i | 0.33
12 | Cn1c(=O)oc2cc(S(=O)(=O)Nc3cccc4c3CCCC4)ccc21 | i | -0.52
13 | COC(=O)CSc1nc2cc3c(cc2cc1C)OCO3 | i | 0.95
14 | CCOC(=O)C1=C(N)Oc2cc(O)ccc2C1c1ccc([N+](=O)[O-])cc1 (stereo not drawn) | i | 0.65
15 | CCc1ccccc1N(C(=O)c1snc(C(N)=O)c1N)C(C(=O)NCC1CCCO1)c1c[nH]c2ccccc12 (stereo not drawn) | i | -1.3
16 | Cc1nc2ccccc2c(=O)n1NC(=O)c1c(O)c2c(n(CC(C)C)c1=O)CCCC2 | i | -0.06
17 | Cc1cccc(N(CC(=O)NC2CCCCC2)C(=O)CCC(=O)Nc2ccccn2)c1 | i | 1.3
18 | O=C(CCNc1ccc(Cc2ccncc2)cc1)c1ccc([N+](=O)[O-])cc1 | i | -1.4
19 | CCc1cc2cc(C(=O)N3CCN(Cc4ccccc4)CC3)sc2s1 | -5.8* | 0.42*
20 | CCOc1ccc2c(c1)C(C)=CC(C)(C)N2S(=O)(=O)c1ccc(F)cc1 | i | -0.69

Ordered by value in KCNQ2 block baseline (high to low): 3 from the list above.
# | compound | KCNQ2 block | KCNQ2 block baseline
1 | O=C(NC1CCCC1)C(Cc1ccccc1)n1cccc1 (stereo not drawn) | i | 0.67
11 | O=S(=O)(c1cccs1)N1CCN(c2ccccc2Cl)CC1 | i | 0.33
18 | O=C(CCNc1ccc(Cc2ccncc2)cc1)c1ccc([N+](=O)[O-])cc1 | i | -1.4

(list continues)
# | compound | KCNQ2 block | KCNQ2 block baseline
21 | Cc1cc(NC(=O)c2ccc(S(=O)(=O)N3CCCC3)cc2)nc2c1c(=O)oc1ccccc12 | i | -1.3
22 | CCOC(=O)C1(CCCc2ccccc2)CCN(CCCn2cccn2)CC1 | i | 0.84
23 | Cc1ccc(CSCC(=O)NCc2cccs2)cc1 | i | 1.4
24 | COc1cc(NC(=O)CSc2nc3c(C)ccc(C)c3cc2C)c(C(=O)O)cc1OC | i | -1.2
25 | O=C(NCc1ccccn1)c1ccc(NC(=O)c2ccco2)cc1 | i | 0.67
26 | CC(=O)c1c(C(C)=O)c(C)n(Cc2ccc(Cl)cc2)c1C | i | 0.05
27 | O=C(CCc1ccccc1)Nc1ncn[nH]1 | i | 1.4
28 | CCOc1cc(/C=C2/C(=O)ON=C2C)ccc1OCc1ccccc1 | i | 0.9
29 | COc1ccc(S(=O)(=O)N2CCN(Cc3ccccc3)CC2)cc1 | i | 1.4
30 | Cc1ccc(C(=O)NCc2occc2C(=O)O)o1 | i | 0.88
31 | Cc1nc(SCC(=O)O)c(C#N)c(-c2ccco2)c1C(=O)N(C)C | i | -0.33
32 | Cc1ccccc1-c1nc2cc(Cl)ccc2o1 | i | -0.11
33 | COc1ccc(C(=O)NCC(=O)OCC(=O)N2N=C(c3ccc(Cl)cc3)CC2c2ccco2)cc1OC (stereo not drawn) | i | 0.81
34 | CCN(c1cccc(C)c1)S(=O)(=O)c1ccc(OC)c([N+](=O)[O-])c1 | i | -0.32
35 | Cc1cccnc1Nc1nc(-c2ccc(O)cc2)cs1 | i | 0.16
36 | COc1ccc(/C=C2/N=C(SC3CCOC3=O)N(c3cccc(OC)c3)C2=O)cc1 (stereo not drawn) | i | -0.3
37 | N#C/C(=C\c1ccc2c(c1)OCCO2)C(=O)NC1CCCCC1 | i | 1.2
38 | CCOC(=O)CN1NC2(CCCCCC2)NC1=S | i | -0.37
39 | Cc1ccc(NC(=O)CCn2ccc([N+](=O)[O-])n2)nc1 | i | -0.34
40 | COc1ccccc1NC(=O)CSc1nnc(Cc2ccccc2)o1 | i | 0.37
41 | CCc1cccc(C)c1NC(=O)CCCC(=O)O | i | -0.7
42 | COc1cc(C(=O)Nc2cc(C(F)(F)F)ccc2-n2cncn2)cc(OC)c1OC | i | 1.5
43 | C/C(=N\NC(=S)Nc1cccc(C)c1)c1ccco1 | i | -0.06
44 | CCOC(=O)C1=C(C)NC2=C(C(=O)CCC2)C1c1cccnc1 (stereo not drawn) | i | 0.39
45 | [O-]C1=N/[N+](=C/c2ccc(Cl)cc2)CC1 | i | 1.1
46 | O=C(NC1CC1)C1=C[C@@H](c2coc3ccccc3c2=O)C[C@@H](OCc2ccc(CO)cc2)O1 | i | -0.1
47 | CC1Cc2cc(S(=O)(=O)N3CCC(C(=O)N(C)Cc4ccccc4)CC3)ccc2N1C(=O)C1CC1 (stereo not drawn) | i | 2.4
48 | Cc1nc2ccc(S(=O)(=O)NC(C(=O)N3CCn4c3nc3ccccc34)C(C)C)cc2s1 (stereo not drawn) | i | -0.4
49 | Cc1ccc(SCC(=O)Nc2ccc(C(=O)Nc3ccc(O)cc3)cc2)cc1 | i | 1.6
50 | CCn1cc(CN2CCc3c([nH]c4ccccc34)C2c2cccc(OC)c2)c(C)n1 (stereo not drawn) | i | -3.4
51 | C=CCOc1cccc(C2NC(=O)c3ccccc3O2)c1 (stereo not drawn) | i | 0.22
52 | CCOc1ccc(NC(=O)Cn2c(=O)oc3cc(Cl)ccc32)cc1 | i | 0.13
53 | COc1cc(OC)c(C#N)c(S(=O)(=O)Cc2ccccc2)c1 | i | -0.74
54 | COc1ccc(S(=O)(=O)NCCSCc2ccco2)cc1C | i | -0.01
55 | COCCCNC(=O)C(=O)Nc1cc2c3c(c1)CCC(=O)N3CCC2 | i | 0.42
56 | CCOc1ccc(NC(=O)CCS(=O)(=O)c2ccc3c(c2)CCCN3C(=O)CC)cc1 | i | -0.95
57 | CC(=O)Nc1cccc(NC(=S)Nc2cccc3ccccc23)c1 | i | 0.02
58 | Cc1ccc(C(=O)N2CCN(C(=O)c3ccco3)CC2)cc1NC(=O)c1ccco1 | i | 1.5
59 | CS(=O)(=O)C1=NSC2=NC(=O)/C(=C\c3cccn3-c3ccccc3Cl)C(=N)N21 | i | -0.13
60 | Cc1cc(O)c(C(C[N+](=O)[O-])c2ccc(Cl)cc2Cl)c(=O)o1 (stereo not drawn) | i | 2.5

Given with values ahead of the structure: part of the list above
No.	KCNQ2 block	KCNQ2 block baseline	smiles
45	i	1.1	[O-]C1=N/[N+](=C/c2ccc(Cl)cc2)CC1
54	i	-0.01	COc1ccc(S(=O)(=O)NCCSCc2ccco2)cc1C

(listing goes on)
# | compound | KCNQ2 block | KCNQ2 block baseline
61 | CNC(=O)C(C)NS(=O)(=O)c1ccc(F)cc1 (stereo not drawn) | i | 1.8
62 | COc1ccc(NC(=O)CN2CCc3ccccc3C2)cc1OC | i | -0.54
63 | Cc1ccc(S(=O)(=O)N2CCCCC2CCNC(=O)C(=O)NC2CC2)cc1 (stereo not drawn) | i | 0.47
64 | Cc1ccc(CS(=O)(=O)CCC(=O)NCc2ccccc2Cl)cc1 | i | -0.22
65 | O=C(Nc1c(-c2ccccc2)nc2sccn12)c1ccccc1 | i | 0.26
66 | CCCCCCn1c(=O)c(C(=O)N/N=C/c2cccc(F)c2)c(O)c2ccccc21 | i | 0.6
67 | COc1ccc(CC(=O)Nc2cc(Cl)ccc2C(=O)O)cc1 | i | -1.4
68 | Cc1cccc(NC(=O)C2CCCN2C(=O)Oc2ccccc2)c1C (stereo not drawn) | i | 0.54
69 | CCOC(=O)c1c(S(=O)(=O)NCC(=O)N2CCN(c3ccc(OC)cc3)CC2)c(C)n(C)c1C | i | 2.4
70 | COCCCN1C(=O)C(=O)/C(=C(/O)c2ccc(S(=O)(=O)N3CCOCC3)cc2)C1c1ccc(F)cc1 (stereo not drawn) | i | -0.99
71 | Cc1sc(NC(=S)NC(=O)C(C)(C)C)c(C(N)=O)c1C | i | -0.57
72 | Cc1ccc(S(=O)(=O)N2CCN(C(=O)CC(C)n3nc(C)c(Cl)c3C)CC2)cc1C (stereo not drawn) | i | 0.06
73 | CN1CCN(c2ccc([N+](=O)[O-])cc2C(=O)c2ccc(Br)cc2)CC1 | i | 0.48
74 | CC(SC(=S)N(C)Cc1cccs1)C(=O)O (stereo not drawn) | i | 3
75 | O=C(c1ccc(Sc2cccc(Cl)c2)c([N+](=O)[O-])c1)N1CCN(c2ccccn2)CC1 | i | 0.49
76 | Cc1ccc(NC(=O)N(CCCN2CCOCC2)Cc2cc3cc4c(cc3[nH]c2=O)OCO4)cc1 | i | 0.67
77 | O=C(Cc1cccs1)N1CCN(S(=O)(=O)c2cccc([N+](=O)[O-])c2)CC1 | i | 0.08
78 | Cc1ccc(CN2CCNC(=O)C2CC(=O)N(C)C2CCCCC2)o1 (stereo not drawn) | i | 0.03
79 | Cc1c(Cl)c([N+](=O)[O-])nn1CC(=O)NC(C)C1CC2CCC1C2 (stereo not drawn) | i | 0.41
80 | Cc1cc2nc[nH]c2cc1[N+](=O)[O-] | i | 0.08

Whole records as entered above. Order of screens: KCNQ2 block	KCNQ2 block baseline
Shown for COc1ccc(CC(=O)Nc2cc(Cl)ccc2C(=O)O)cc1 = i	-1.4
Shown for Cc1ccc(S(=O)(=O)N2CCCCC2CCNC(=O)C(=O)NC2CC2)cc1 (stereo not drawn) = i	0.47
Shown for COCCCN1C(=O)C(=O)/C(=C(/O)c2ccc(S(=O)(=O)N3CCOCC3)cc2)C1c1ccc(F)cc1 (stereo not drawn) = i	-0.99

Going on with the list:
# | compound | KCNQ2 block | KCNQ2 block baseline
81 | CCOC(=O)CSc1nnc(CNc2ccc(F)cc2)o1 | i | 0.59
82 | O=C1N/C(=N/S(=O)(=O)c2ccccc2)S/C1=C/c1cccnc1 | i | -0.41
83 | COc1ccc(-c2nnc(NC(=O)c3ccc(S(=O)(=O)N4CCc5ccccc5C4)cc3)o2)cc1 | i | 1.4
84 | COc1ccc(CCNC(=O)C2CC(c3cccc([N+](=O)[O-])c3)=NO2)cc1 (stereo not drawn) | i | -0.04
85 | CCCC(CCC(=O)OC)(C(=O)OCC)c1csc(N)n1 (stereo not drawn) | i | 1
86 | O=C1c2ccccc2S(=O)(=O)c2cc(N3CCOCC3)ccc21 | i | 0.62
87 | S=C(NCc1ccco1)N1CCN(C/C=C/c2ccccc2)CC1 | i | 3.6
88 | CNC(=O)/C(C#N)=C/c1cccc(Oc2ccccc2)c1 | -5.9* | -0.63*
89 | CCOc1ccc(N2C(=O)C(=O)/C(=C(/O)c3ccccc3)C2c2ccccc2[N+](=O)[O-])cc1 (stereo not drawn) | i | 0.01
90 | COc1cc(SC)ccc1C(=O)N(CC(=O)Nc1ccccc1Br)Cc1ccco1 | i | 0.27
91 | O=C(O/N=C\c1ccc(N2CCCCC2)c([N+](=O)[O-])c1)c1c(F)cccc1F | i | -2
92 | CN1C(=O)c2ccc(NC(=O)C3CCCCC3)cc2C1=O | i | 0.02
93 | Cc1cccc(C(=O)Nc2nnc(SCC(=O)NCc3ccco3)s2)c1 | i | 0.19
94 | CCOC(=O)c1c(NC(=O)CNCC(O)CO)sc(C)c1C (stereo not drawn) | i | 0.71
95 | COc1ccc(OC)c(NC(=O)CN(c2ccc(C)cc2)S(=O)(=O)c2c(C)noc2C)c1 | i | -0.54
96 | COc1ccc(OCc2cc(C(=O)N(C)CC3CCCCO3)no2)c(Cl)c1 (stereo not drawn) | i | 0.54
97 | CSc1nc2c(c(=O)[nH]1)C(c1ccc(Br)cc1)CC(=O)N2 (stereo not drawn) | i | 0.71
98 | COc1ccc(N2CCN(C(=O)Cn3nnc(-c4ccc(OC)c(OC)c4)n3)CC2)cc1 | i | -0.07
99 | COc1ccc(CN2CCC(c3nc4ccc(Cl)cc4[nH]3)CC2)cc1 | i | -0.84
100 | CC(=O)c1sc(NCc2ccc(C)cc2)nc1C | i | -1.5
101 | O=c1[nH]c2cc3c(cc2cc1CN(Cc1cccnc1)Cc1nnnn1Cc1ccco1)OCCO3 | i | 0.35
102 | CC(C)(C)c1ccc(/C=C2\Oc3c(ccc(O)c3CN3CCN(CCO)CC3)C2=O)cc1 | i | 12
103 | COc1cc(Cl)c(CN2CCCC(CO)(Cc3cccc(Cl)c3)C2)cc1OC (stereo not drawn) | i | 2.1
104 | CN(CC(=O)NC1CCCCC1)S(=O)(=O)c1cccc2nsnc12 | i | 0.35
105 | CCOc1cc(C2NC(=O)c3ccccc3O2)ccc1OC(C)C (stereo not drawn) | i | 0.08
106 | Cc1ccc(-c2cc(C(=O)NCC3CCCO3)c3ccccc3n2)cc1C (stereo not drawn) | i | 0.07
107 | COc1ccccc1N1CCN(C(=O)c2oc3c(c2C)C(=O)CC(C)(C)C3)CC1 | i | 0.99
108 | C=CCNS(=O)(=O)c1sccc1/C=N/O | i | 1.9
109 | Nc1nonc1-n1nnc(C(=O)N/N=C/c2cccc(Cl)c2Cl)c1CN1CCCC1 | i | 0.92
110 | COc1ccc(/C=N/NC(=O)CSc2ccccn2)cc1OC | i | 0.66
111 | CCOC(=O)c1cnc2c(ccc3ccccc32)c1NCCN(C)C | i | 1.4
112 | CCN(CC)S(=O)(=O)c1cc(OC)c(Cl)cc1OC | i | -0.92
113 | O=C(c1cnc(-c2ccccc2)s1)c1ccc(Cl)cc1Cl | i | -0.9
114 | Cc1cccc(NC(=O)c2cc(-c3c(C)cc(C)cc3O)n[nH]2)c1 | i | -0.69
